Screening results deposited in PubChem BioAssay by several laboratories.
ALR H2O2 inh = human ALR oxidase inhibition via reduced H2O2. inhibition, % (no concentration beside the values). AID 485317. hit rate 3.8% among 290,000. purified ALR, DTT oxidation, H2O2 HRP-luminol luminescence;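 active means mean and each replicate at 75% or more; inconclusive means only one of the two met; inactive means neither met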;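 further: stock transfer was 7.5 nL into about 7.5 µL; 0% = neutral wells and 100% = wells with inactivated enzyme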
RanGTP-Imp inh = disruptors of Ran-importin-beta complex formation – biochemical, FRET, CFP-Ran, YFP-importin-beta, homogeneous, primary screen; AID 2216; inhibition, % (test concentration not listed); cell-free CFP-Ran/YFP-importin-beta FRET ratio; hit rate 1.1% among 300,000;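 active means most replicates above 15%; inconclusive means exactly half above 15%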;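 further: 0% = DMSO wells and 100% = Ran loaded with GDP instead of GTP; wells of about 40 µL received 100 nL stock; the first replicate is given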
LANA-H2B inh = blocks KSHV LANA binding to histone H2A/H2B. Q9QR71. cell-free LANA-H2A/H2B peptide, fluorescence polarization. inhibition, % (no concentration beside the values). hit rate 0.6% among 320,000; in the data active means inhibition mostly above about 10%, no sharp cut-off; inactive means mostly below about 6.7%;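 further: stock transfer was 7.5 nL into about 10 µL; 0% = median of vehicle wells and 100% = median of positive control wells; one replicate is shown; the record names a cut of 25% in any replicate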
Target sequence (Q9QR71 whole entry, looked up): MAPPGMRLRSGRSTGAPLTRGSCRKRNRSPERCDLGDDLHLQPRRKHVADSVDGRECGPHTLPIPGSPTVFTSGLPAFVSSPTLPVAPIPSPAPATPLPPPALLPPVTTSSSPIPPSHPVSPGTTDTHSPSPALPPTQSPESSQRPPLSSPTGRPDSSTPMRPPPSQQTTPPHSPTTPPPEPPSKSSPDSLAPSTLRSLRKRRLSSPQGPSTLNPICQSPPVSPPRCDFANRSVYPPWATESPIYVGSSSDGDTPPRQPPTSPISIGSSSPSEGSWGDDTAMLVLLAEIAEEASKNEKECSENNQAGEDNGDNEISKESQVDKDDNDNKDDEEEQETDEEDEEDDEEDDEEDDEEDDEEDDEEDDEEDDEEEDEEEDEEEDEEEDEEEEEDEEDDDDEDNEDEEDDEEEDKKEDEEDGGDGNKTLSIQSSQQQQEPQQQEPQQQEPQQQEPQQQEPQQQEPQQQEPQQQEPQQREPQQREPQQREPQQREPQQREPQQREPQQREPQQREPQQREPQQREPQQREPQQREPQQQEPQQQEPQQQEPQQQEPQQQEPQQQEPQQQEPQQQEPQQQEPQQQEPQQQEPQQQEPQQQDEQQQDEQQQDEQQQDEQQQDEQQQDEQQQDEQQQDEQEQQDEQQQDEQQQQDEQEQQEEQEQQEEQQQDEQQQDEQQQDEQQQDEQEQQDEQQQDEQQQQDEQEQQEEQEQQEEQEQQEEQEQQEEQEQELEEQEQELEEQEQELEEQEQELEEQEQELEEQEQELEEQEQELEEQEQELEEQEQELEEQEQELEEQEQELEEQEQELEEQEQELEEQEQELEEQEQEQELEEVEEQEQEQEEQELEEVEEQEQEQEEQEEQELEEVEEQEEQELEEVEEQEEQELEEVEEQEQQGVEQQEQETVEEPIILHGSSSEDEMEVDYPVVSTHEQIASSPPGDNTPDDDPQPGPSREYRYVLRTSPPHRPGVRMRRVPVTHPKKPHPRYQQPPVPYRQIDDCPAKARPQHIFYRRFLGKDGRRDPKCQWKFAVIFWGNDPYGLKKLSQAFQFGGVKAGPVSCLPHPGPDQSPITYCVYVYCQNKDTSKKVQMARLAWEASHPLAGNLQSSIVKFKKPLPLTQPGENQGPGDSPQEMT
HNF4A DNA FP = change in binding of human HNF4 alpha to DNA; HNF4a-FITC DNA binding, fluorescence polarization, 1 h; activity change, % at 10 µM; hit rate 0.3% among 360,000; AID 1224865; in the data active means activity change above about 30%, passing the limit was not always enough;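 further: controls were the assay level and a saturating level of protein; the project sought stronger binding though the title names inhibitors; some compounds called inactive have numbers as strong as hits; positive values seem to mean higher polarization but the record does not say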
B2AR ag = activates human beta-2 adrenergic receptor causing internalization; P07550; Am2.2-beta2AR cells, FAP receptor internalization, flow cytometry; reference of the scale not given here; response, % (no concentration beside the values); hit rate 0.43% among 340,000; AID 504454;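 active means response above a set limit, near 3 SD of response in nonfluorescent compounds, cut at about 42% in these data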;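 further: stock transfer was 100 nL into about 11 µL; a reference agonist was the positive control; negative values mostly stem from fluorescent compounds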
Vif A3G = HIV-1 Vif–A3G interaction blockers – biochemical, TR-FRET, GST-Vif 1-94, biotin-A3G peptide, dose response retest, primary screen (AID 1117319); TR-FRET GST-Vif / biotin-A3G peptide binding; higher % means a stronger effect; test concentration not given here; strong numbers were not always called active; inhibition, %; hits with a dose series show IC50 in µM; hit rate 0.57% among 260,000;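 active means above the screen mean plus three standard deviations and confirmed in dose response; inconclusive means results disagree or hit not tested in dose response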;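 further: Vif residues 1-94 fused to GST binding biotinylated APOBEC3G peptide 110-148; 0% = full assay without inhibitor and 100% = GST in place of GST-Vif; retest series ran down from 100 µM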
Calb FLC = affects C. albicans growth with fluconazole. C. albicans CaCi-2 (fluconazole-resistant clinical isolate) + fluconazole, Alamar Blue growth, 48 h. growth inhibition, % (concentration not given with the values). hit rate 0.57% among 300,000;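 active means most replicates above 75%; inconclusive means exactly half above 75%; inactive means most below 75%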;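 further: all wells also contain fluconazole at 8 µg/ml as a sub-toxic cotreatment; 0% = median of DMSO wells and 100% = median of geldanamycin control wells; wells of about 8 µL received 7.5 nL stock; the first replicate is given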
* marks the source's active call; other numbers are inactive results; ? = inconclusive; / = no result given; & = joins results of further samples.

SMILES	ALR H2O2 inh	RanGTP-Imp inh	LANA-H2B inh	HNF4A DNA FP	B2AR ag	Vif A3G	Calb FLC
CC(C)CC(O)(CC(C)C)C(=O)NNc1ccccc1	99*	5.1	4.1	-1.6	0	0%	?
C[n+]1ccccc1/C=C/c1ccc(C#N)cc1	-16	0.5	2.1	-2.4	6	/	1
O=C(NCc1ccccn1)C1CN(S(=O)(=O)c2ccccc2)CCN1S(=O)(=O)c1ccccc1 (stereo not given)	-6	0.7	-1.4	1.1	15	/	5
Cc1cnc(NC(=O)CSc2ccc(Cl)cc2)s1	-3	0.2	-2.5	0.9	-1	-2%	3
Cc1ccc(CSc2nnc(-c3cnccn3)n2C)cc1	/	?	4.7	5.0	11	-3%	-5
C=CCOC(=O)C1=C(C)Nc2nc3ccccc3n2C1c1ccncc1 (stereo not given)	-6	?	2.9	-12	-5	7%	-6
Cc1cc(Nc2cccc(C(F)(F)F)c2)n2nc(C)nc2n1	/	-5.2	/	2.4	-6	2%	33
O=C(Nc1ccc(Br)cc1)c1cc(S(=O)(=O)Nc2ccccn2)ccc1Cl	-6	0.7	-5.5	1.0	2	/	-2
O=C(CN1CCCCC1)Nc1ccc(S(=O)(=O)N2CCCCCC2)cc1	-18	1.2	-4.0	-0.2	-5	1%	9
NC(=O)COC(=O)c1ccccc1OCc1ccccc1	-6	-1.2	-2.7	14	10	-11%	-4
Nc1nc2n(n1)C(c1ccc(F)cc1)CC(c1ccc(F)cc1)N2 (stereo not given)	0	-4.4	-0.3	1.7	-1	5%	21
COc1cc(/C=C2/SC(=S)N(Cc3ccccc3)C2=O)ccc1O	-2	-5.3	-1.4	69*	1	/	31
CC1=C(C(=O)OCC2CCCO2)C(c2cccc(O)c2)NC(=O)N1 (stereo not given)	2	-2.3	0.7	3.0	-1	21%	0
CCOC(=O)C1CCCN(c2cc(=O)n(Cc3ccc(F)cc3)c(=O)[nH]2)C1 (stereo not given)	2	12	3.7	2.1	0	?	2
CCC(=O)Nc1ccnc(-c2cccnc2)n1	-7	-0.9	-3.8	-4.1	-2	-3%	-10
COC(=O)c1c(C)[nH]c(O)c1C=Nc1ccc(Oc2ccccc2)cc1	49	-1.3	-1.5	17	12	5%	-6
CCCCN(C)C(=O)c1cc2cc([N+](=O)[O-])cc(OC)c2oc1=O	0	-1.3	-2.8	0.5	1	5%	21
COc1cc2[nH]c(-c3ccc(C)cc3)cc(=O)c2cc1OC	/	2.2	0.5	2.8	1	-1%	4
c1csc(Cn2nnnc2CN2CCN(c3nc4ccccc4s3)CC2)c1	-11	3.6	-0.3	2.4	-1	4%	18
CC(=O)OCC12COC3c4ccccc4OC(C)(CC1C)C3C2C (stereo not given)	-9	0.5	1.9	0.8	-2	-1%	106*
Cc1ccc(C(=O)Nc2ncccc2O)o1	-18	/	-2.8	3.7	0	9%	-3
Cn1c(=O)oc2cc(S(=O)(=O)NCCN3CCN(c4ccccc4F)CC3)ccc21	9	2.0	2.3	-0.3	-17	3%	-2
O=C(CNS(=O)(=O)c1ccc(F)cc1)N1CCCCCC1	-8	?	1.2	1.2	-2	/	-12
Cc1ccc(C(=O)NCC(=O)OCC(=O)/C=C2\N(C)c3ccccc3C2(C)C)cc1C	-20	-1.8	4.5	3.1	-4	6%	-7
C/C(=N\NC(=O)c1ccc2c(c1)OCO2)c1ccc(NS(C)(=O)=O)cc1	0	3.9	3.4	1.5	-8	/	-4
COc1ccc(CNc2nc3nc(C)c(Cl)c(=O)n3[nH]2)cc1OC	-19	2.3	-3.8	4.8	0	9%	-5
CCOC(=O)c1c(NC(=O)CN2C(=O)NC3(CCC(C)CC3)C2=O)sc(C(=O)N(C)C)c1C (stereo not given)	0	-11	-2.0	3.9	0	-10%	-3
COc1ccccc1C(=O)CSc1n[nH]c(N)n1	40	4.1	6.3	-0.4	3	-2%	14
O=C(O)c1ccc(OC(F)(F)C(F)C(F)(F)F)cc1 (stereo not given)	-5	-1.2	-1.7	0.2	7	-3%	6
Cc1nn(CCc2nn[nH]n2)c2nc(C(F)(F)F)cc(C(F)(F)F)c12	3	-1.9	-2.3	-3.0	5	19%	25
CCN(c1ccccc1)S(=O)(=O)c1cc(C(=O)Nc2ccc(Br)cc2)ccc1F	0	-1.1	1.3	-1.7	4	12%	-1
O=S(=O)(NCc1cccnc1)c1cc(Cl)ccc1Cl	3	5.1	2.3	2.9	-5	1%	-13
COc1ccc(S(=O)(=O)N2CCC(O)(c3ccc(Cl)cc3)CC2)cc1	/	3.2	-3.7	-4.8	5	3%	-6
COc1ccc(OC)c2c(N3CCN(C)CC3)cc(C(F)(F)F)nc12	-15	1.2	0.4	-0.8	1	5%	-41
O=C(CSc1ccc2nnc(-c3ccccn3)n2n1)Nc1ccc2c(c1)OCCO2	0	3.0	-0.3	-0.3	-15	1%	-2
O=C(CN1CCC(C(=O)c2ccc3c(c2)OCCO3)CC1)NCc1ccccc1	-3	-4.3	-1.7	0.6	0	/	-14
Cc1ccccc1Cn1cc(S(=O)(=O)CC(=O)Nc2nccs2)c2ccccc21	-6	1.3	6.0	-1.4	10	6%	30
O=C(Nc1ccc(Cl)cc1)Nc1nnc(CSCc2ccc(Cl)cc2)s1	-4	-0.7	-1.7	-1.2	-2	19%	2
Cc1cc(C(=O)OCC(=O)Nc2ccc(F)c(F)c2F)c(C)o1	-8	-0.4	3.0	1.0	0	-11%	-18
Cc1ccc(Cn2c(=O)c3ccccc3n3c(CCC(=O)NCCN4CCOCC4)nnc23)cc1	-6	5.6	-3.1	1.7	-17	/	-18
Cc1ccc(S(=O)(=O)NCC(=O)Nc2ccc(C(F)(F)F)cc2)cc1	/	-1.6	/	1.0	-13	-5%	21
O=C(N[C@@H]1C/C=C\C[C@@H](CC(=O)N(CCO)Cc2ccccc2)C(=O)NCCOC1=O)OCC1c2ccccc2-c2ccccc21	-12	/	6.4	0.7	2	/	/
COCCCNC(=S)Nc1ccccc1[N+](=O)[O-]	3	3.3	-0.1	1.5	6	-6%	-28
CCCC(C)NC(=O)CN(Cc1ccco1)S(=O)(=O)c1ccccc1 (stereo not given)	1	/	-1.8	1.0	-16	-6%	/
COc1cc(-c2nc3ccc(C)cn3c2NCc2ccccc2)ccc1SC1CCCCC1	10	-2.5	2.7	-2.9	9	/	4
CC(C)(C)c1ccc(OCCn2nc(C(=O)O)c3ccccc3c2=O)cc1	2	-0.8	0.1	-0.2	0	/	-1
Cc1cnc(NC(=O)CSc2ncc(-c3ccccc3)n2Cc2ccco2)s1	-6	0.2	-4.7	0.7	-6	0%	-5
Cc1ccc(O)c(N=NC2=C(O)CC(C)(C)CC2=O)c1	11	-6.3	-4.9	24	-17	4%	85*
O=C(COC(=O)c1cc(Br)ccc1O)Nc1cccnc1Cl	-3	-0.7	-1.2	-0.7	6	-46%	0
CCCC(=O)N(Cc1cc(=O)[nH]c2ccccc12)c1ccccc1C	3	-1.2	4.8	-0.1	1	5%	0
FC(F)Oc1ccccc1C1CC(c2ccc(Br)s2)Nc2ncnn21 (stereo not given)	2	4.9	2.2	1.4	4	27%	-5
Cc1ccc(C)c(Sc2ccc(NC(=O)CCN3C(=O)NC4(CCCC4)C3=O)cc2)c1	/	/	-2.0	1.2	11	/	/
COCCNC(=O)/C=C/c1c(Cl)cccc1Cl	-10	-0.4	0.2	0.9	22	8%	44
O=S(=O)(Nc1cccc(-c2nc3cccnc3s2)c1)c1ccc2c(c1)CCCC2	-13	-3.3	-0.7	0.3	-11	/	-4
CC(C)(C)OC(=O)N1CCC(NC(=O)c2nc[nH]c2C(=O)NCc2ccccc2)CC1	3	/	-3.3	19	-15	/	/
O=C(CN(C(=O)c1csnn1)c1ccccc1C(F)(F)F)NC1CCCCC1	0	2.2	1.8	2.2	7	/	-2
COc1ccc(N2C(=O)CSC23C(=O)N2c4c(cccc43)C(C)=CC2(C)C)cc1 (stereo not given)	-3	1.9	-6.1	-1.0	5	3%	35
COc1cccc2[nH]c(=O)c(-c3ccccc3)cc12	-6	5.1	-1.9	1.8	-3	-3%	-6
CC1(C)CC2CC(C)(CN2C(=O)COC(=O)c2ccccc2C(F)(F)F)C1 (stereo not given)	-2	/	0.2	-1.2	-2	-4%	/
CCCOC(=O)c1ccc(NC(=O)/C=C/c2cccs2)cc1	1	4.4	-3.7	-0.1	2	9%	-1

One compound at a time, from the list above:
Cc1ccccc1Cn1cc(S(=O)(=O)CC(=O)Nc2nccs2)c2ccccc21 is listed with ALR H2O2 inh = -6; RanGTP-Imp inh = 1.3; LANA-H2B inh = 6.0; HNF4A DNA FP = -1.4; B2AR ag = 10; Vif A3G = 6%; Calb FLC = 30
O=C(N[C@@H]1C/C=C\C[C@@H](CC(=O)N(CCO)Cc2ccccc2)C(=O)NCCOC1=O)OCC1c2ccccc2-c2ccccc21 is listed with ALR H2O2 inh = -12; RanGTP-Imp inh = /; LANA-H2B inh = 6.4; HNF4A DNA FP = 0.7; B2AR ag = 2; Vif A3G = /; Calb FLC = /

The listing picks up; the 2 compounds before the break are reprinted first.
SMILES	ALR H2O2 inh	RanGTP-Imp inh	LANA-H2B inh	HNF4A DNA FP	B2AR ag	Vif A3G	Calb FLC
CC1(C)CC2CC(C)(CN2C(=O)COC(=O)c2ccccc2C(F)(F)F)C1 (stereo not given)	-2	/	0.2	-1.2	-2	-4%	/
CCCOC(=O)c1ccc(NC(=O)/C=C/c2cccs2)cc1	1	4.4	-3.7	-0.1	2	9%	-1
CC(C)NC(=O)C1CCN(C2CCN(C(=O)c3cc4c(s3)CCCCC4)CC2)CC1	-6	-2.7	-17	0.8	-7	-4%	5
C/C(N)=C(/C#N)C(=O)COC(=O)c1ccc(C)c(S(=O)(=O)N2CCCCC2)c1	-8	0.4	-0.4	-0.3	-5	3%	0
CCOC(=O)C1C(=O)CC(C)(O)C(C(=O)OCC)C1c1ccccc1 (stereo not given)	2	1.5	-2.9	0.6	6	6%	1
COc1ccc(-c2cn(CCC(=O)O)c(-c3ccncc3)n2)cc1	69	/	5.2	-7.8	-8	/	/
CCOC(=O)c1ccc(NC(=O)c2cc3c(s2)CCC3)cc1	6	1.7	0.1	3.0	10	-13%	2
CCOC(=O)c1sc2nc(Cc3ccc(Cl)cc3)[nH]c(=S)c2c1C	/	-1.1	3.6	0.1	-5	/	-6
Cc1c(C(=O)O)oc2c1ccc1ccccc12	-18	1.8	-1.7	0.8	1	-1%	5
S=C1NC2=C(CCCC2)C2(CCCCC2)N1	-2	1.9	-4.8	-0.7	5	-1%	-18
CCC1(CC)C(=O)C2=C3C1[C@H](C(=O)OC)C=C(C(=O)OC)C[C@H]3[C@H]1C(=O)N(CC(=O)OC)C(=O)[C@H]1[C@H]2C (stereo not given in full)	-28	-1.3	-0.4	-0.4	-3	/	0
C/C(=N\NC(=O)c1cc([N+](=O)[O-])cc([N+](=O)[O-])c1)c1ccco1	-24	?	-7.1	0.0	-4	17%	-23
Cc1noc(NS(=O)(=O)c2ccc(NC(=O)CS(=O)(=O)c3ccccc3)cc2)c1C	70	4.1	-4.8	4.7	-5	-1%&-4%	4
CC1CC2c3cccc(C(=O)O)c3C(=O)N2c2ccc(Cl)cc21 (stereo not given)	/	3.1	5.5	-0.1	2	6%	-6
CC(C)(C)c1ccc(C(=O)NCC(=O)N/N=C/c2cccnc2)cc1	-4	-6.8	3.2	3.5	2	/	-3
O=C(COC(=O)CCc1ccc(S(=O)(=O)N2CCOCC2)cc1)NC1CCCCCC1	2	-1.8	-7.8	-1.3	-10	-5%	3
COc1ccc(CCNc2c3ccccc3nc3ccccc23)cc1OC	/	43*	-5.3	-3.7	5	4%	-14
Oc1cccc(/C=N/c2c(-c3ccco3)nc3ccccn23)c1	11	9.5	1.7	-4.2	6	>67µM*	7
CCCC(=O)NC(NC(=S)Nc1ccc(N=Nc2ccccc2)cc1)C(Cl)(Cl)Cl (stereo not given)	0	-1.4	-0.2	2.4	3	-4%	-24

An unsorted share of the library (roughly 6.3% active in at least one column).
